Compound activity: PubChem, National Center for Advancing Translational Sciences (NCATS)
A647 fluor – A647 region autofluorescence | Compound fluorescence, A647 channel (570/671 nm), Tris buffer | max dye-equivalent concentration, M | 59,000 tested, under 10 active; active means above 1 µM dye equivalent; inconclusive means 0.1 to 1 µM; inactive means 0.1 µM or less;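 note: values scaled relative to a standard on each plate; highest value over a series up to 38 µM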
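Compound fluorescence was measured in 100 mM Tris buffer, pH 8.0, after 15 min at room temperature, using 570 nm excitation and 671 nm emission filters. Signal was normalized to a per-plate Alexa 647 standard curve and expressed as dye-equivalent concentration at each compound concentration.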
AID923 – qHTS Assay for Allosteric/Competitive Inhibitors of Caspase-1: Spectroscopic Profiling in AFC Spectral Region | 75,000 compounds, 1.1% hits | Potency, µM (doses to about 57.5 µM), for the others: top-dose fluorescence increase, actives largely listed as activators | compound fluorescence, AFC spectral region (405/520 nm); almost no hit is shown here; active = well fitted activation curve with a large enough effect; inconclusive = small, poorly fitted or top-dose-only effect;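 note: potency is the fitted concentration of half-maximal effect; 0% is about no effect; scaled to a free AFC standard on each plate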
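Compound autofluorescence profiled at 405 nm ex/520 nm em during kinetic caspase 1 run (50 nM enzyme, 5 uM Ac-WEHD-AFC, HEPES pH 7.5, 10 mM DTT). Titration up to 57 uM; baseline from regression intercept, normalized to AFC standard curve.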
Resorufin fluor – compounds fluorescent in resorufin spectral region; Compound fluorescence, resorufin region 547/598 nm, buffer; active compounds read high; max dye-equivalent concentration, M; 59,000 compounds, 0.04% hits; active = above 10 nM dye equivalent; inconclusive = 1 to 10 nM; inactive = 1 nM or less; a few of its hits are not listed in these tables; note: highest value over a series up to 38 µM
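Intrinsic fluorescence profiled in the resorufin window (ex 547 nm, em 598 nm) after 15 min at room temperature in pH 8.0 Tris buffer (100 mM); responses normalized against a six-point resorufin standard series as dye-equivalent concentration.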
A488 autofl – A488 region autofluorescence; max dye equivalency, M; 59,000 compounds, 0.1% hits; compound autofluorescence, A488 spectral region, dye equivalency; active compounds read high; active = above 10 nM dye equivalent; inconclusive = 1 to 10 nM; inactive = 1 nM or less; about half of its hits are not listed in these tables;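 note: highest value over a series up to 38 µM; compound alone in buffer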
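Read-out: relative fluorescence at 480/540 nm, expressed as Alexa 488 dye-equivalent concentration from a six-point A488 standard included per plate. Conditions: 100 mM Tris, pH 8.0; 15 min incubation, room temperature.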
TSHR agonist – agonists of human thyroid stimulating hormone receptor | P16473 | HEK293-CNG-TSHR cells (CNG channel as cAMP sensor), membrane potential dye, cAMP | AID 926 | Potency, µM (doses to about 57.1 µM), without a hit: at the top dose activation, most hits filed as activators | 73,000 compounds, 0.48% hits; active = well fitted activation curve of enough size with the parental cells flat; inconclusive = any curve in the parental cells; inactive = parental cells flat and receptor cells flat or falling; note: potency is the fitted concentration of half-maximal effect; % of control where 0% means no effect; weak receptor curves with flat parental cells got no call and are not listed
Target sequence (P16473 whole entry, looked up): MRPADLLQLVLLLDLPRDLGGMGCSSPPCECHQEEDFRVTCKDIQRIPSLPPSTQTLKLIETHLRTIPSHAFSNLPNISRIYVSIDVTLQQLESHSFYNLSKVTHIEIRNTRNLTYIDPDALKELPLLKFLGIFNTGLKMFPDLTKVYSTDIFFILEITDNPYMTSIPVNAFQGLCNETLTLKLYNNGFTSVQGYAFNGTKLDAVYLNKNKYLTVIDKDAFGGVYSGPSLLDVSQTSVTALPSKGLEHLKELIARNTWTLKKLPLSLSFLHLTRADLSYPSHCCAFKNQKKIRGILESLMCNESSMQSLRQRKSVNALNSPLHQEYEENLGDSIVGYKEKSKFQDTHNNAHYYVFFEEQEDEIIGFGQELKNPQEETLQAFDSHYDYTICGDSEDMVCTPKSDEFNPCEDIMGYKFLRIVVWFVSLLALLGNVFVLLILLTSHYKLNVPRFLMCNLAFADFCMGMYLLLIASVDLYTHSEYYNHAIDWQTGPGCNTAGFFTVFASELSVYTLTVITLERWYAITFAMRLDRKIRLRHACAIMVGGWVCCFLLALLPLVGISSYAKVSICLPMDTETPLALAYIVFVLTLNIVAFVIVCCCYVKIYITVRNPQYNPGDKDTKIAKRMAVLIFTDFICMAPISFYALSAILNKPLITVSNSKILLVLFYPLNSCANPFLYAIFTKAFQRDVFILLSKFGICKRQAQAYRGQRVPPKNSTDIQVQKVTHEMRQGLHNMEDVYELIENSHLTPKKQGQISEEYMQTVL
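HEK 293 cells stably expressing TSHR and a modified CNG channel, with CNG-only parental cells as counterscreen, were preloaded 60 min at room temperature with membrane potential dye containing 100 uM RO 20-1724. Compound exposure was 30 min, and depolarization was read as fluorescence at 590 nm.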
Starred values were filed as active, the others as inactive; i = inactive; ? = inconclusive; . = not tested or not shown; & = joins results of further samples; [ ] = dose if it differs, or a comment. This is a subset; the hit share may differ from the screen's.

Screens in order: A488 autofl, TSHR agonist, Resorufin fluor, AID923, A647 fluor
(1) C/C(CCc1c[nH]c2ccccc12)=N\O
    i, 31%, i, 1.8%, 6.3e-09
(2) Cc1noc(C)c1C(=O)N1CCC[C@@]2(CCN(CC(C)C)C2)C1
    i, 3%, i, 2.0%, 2e-08
(3) COc1ccccc1N1C(=O)NC(=O)C2(Cc3cc(C)ccc3N(C)C2)C1=O (centres undefined)
    i, 10%, i, 0.7%, 6.2e-09
(4) C=CC1CC=CCC1 (centres undefined)
    ., 5%, ., 0.9%, .
(5) CN(C)CC#CCOCCOCCC#N
    i, -10%, i, 1.8%, 2.1e-08
(6) Clc1ccccc1-c1cncnc1NCCc1cnc[nH]1
    i, 1%, i, 2.7%, 7.5e-09
(7) COC(=O)C1(C)C=C2C(=C(C)C(=O)C2C)CN1 (centres undefined)
    ., -6%, ., 3.1%, .
(8) Cc1nc2c(c(C)nn2-c2ccccc2)c(C)c1CCC(=O)N1CCC2(CC1)OCCO2
    ., 3%, ., 0.0%, .
(9) C=C1[C@@H]2C[C@@]3([C@H]1O)[C@H]1C[C@@H]4[C@@]5(C)CC[C@H](O)[C@]4([C@H]1N(CC)C5)[C@H]3C[C@H]2O
    i, -2%[25.6 µM], i, 0.0%[25.7 µM], 4.9e-08
(10) CCN1C[C@@]2(COC)CC[C@H](O)[C@@]34[C@@H]2C[C@@H]([C@@H]13)[C@]1(O)C[C@@H](OC)C2C[C@H]4[C@H]1[C@H]2OC(C)=O
    i, 9%[25.6 µM], i, 0.7%[25.7 µM], 1.7e-09
(11) CCn1c(C)c(C(=O)O)c2cc(OC)ccc21
    i, 0%, i, -0.5%, 1.8e-09
(12) CC(=NCc1cccnc1)c1c(O)n(Cc2ccccc2)c(=O)[nH]c1=O
    i, 3%, i, -0.1%, 1.2e-08
(13) C=C(C)c1cccc(C(C)(C)NC(=O)NC2CN3CCC2CC3)c1 (centres undefined)
    ., 6%[11.4 µM], ., 1.0%, .
(14) CCOC(=O)c1c(-c2ccc(OC)cc2)oc2ccc(OC(=O)N(C)C)cc12
    i, ., i, 0.4%, 1e-09
(15) Cc1ccc(Cl)cc1N1CCN(CCN)CC1
    i, 3%[11.4 µM], i, -1.1%, 2.5e-08
(16) CC(=O)C(C)=O
    i, ?, i, -1.7%, 2.8e-08
(17) O=C(CCCC1=NS(=O)(=O)c2ccccc2N1)N1CCC2(CC1)OCCO2
    i, 2%, i, 0.0%, 1e-09
(18) O=C(O)Cc1cccnc1C(=O)O
    ., 16%, ., -1.3%, .
(19) Cc1nn(C)c(C)c1P(=S)(c1c(C)nn(C)c1C)N(C)C
    i, 2%, i, -1.6%, 3.3e-09
(20) CCOC(=O)C1=C(N)OC2=C(C(=O)CC(C)(C)C2)C12C(=O)Nc1ccccc12 (centres undefined)
    ., 11%, ., -0.1%, .
(21) NNC(N)=S
    ., 4%, ., 1.3%, .
(22) CC(C)Sc1nnc([C@@H](N)Cc2c[nH]c3ccccc23)o1
    i, 1%, i, -1.5%, 1.1e-08
(23) Cn1cccc1CNCCc1ccccc1F
    i, 3%, i, -0.2%, 5.8e-09
(24) Cc1cc(N2CCOCC2)nc2ccc(NC(=O)CCC(=O)N3CCC4(CC3)OCCO4)cc12
    i, 0%, i, -0.1%, 2.3e-09
(25) CCCCCl
    ., ?, ., 1.0%, .
(26) C[C@@]12CC[C@H]3[C@@H](CC=C4C[C@H](OS(=O)(=O)O)CC[C@]43C)[C@H]1CCC2=O
    i, ?, i, -1.0%, 4.3e-08
(27) Cn1c(O)c(C=NCCc2c[nH]c3ccccc23)c(=O)n(C)c1=O
    ., -3%, ., -0.4%, .
(28) CC(=Nc1ccc2c(c1)CCC2)c1c(O)n(C)c(=O)n(C)c1=O
    i, 21%, i, 1.6%, 1.5e-08
(29) CCOC(=O)c1ccccc1N
    ., 2%, ., 0.3%, .
(30) ClC1=C(Cl)C(Cl)(Cl)C(Cl)=C1Cl
    ., ?, ., 1.0%, .

Compound profiles, as listed above. Order of values: A488 autofl	TSHR agonist	Resorufin fluor	AID923	A647 fluor
`C=C1[C@@H]2C[C@@]3([C@H]1O)[C@H]1C[C@@H]4[C@@]5(C)CC[C@H](O)[C@]4([C@H]1N(CC)C5)[C@H]3C[C@H]2O` is entered as i	-2%[25.6 µM]	i	0.0%[25.7 µM]	4.9e-08
`Cn1cccc1CNCCc1ccccc1F` is entered as i	3%	i	-0.2%	5.8e-09

Back to the main list, starting seven compounds before the break.
Screens in order: A488 autofl, TSHR agonist, Resorufin fluor, AID923, A647 fluor
(24) Cc1cc(N2CCOCC2)nc2ccc(NC(=O)CCC(=O)N3CCC4(CC3)OCCO4)cc12
    i, 0%, i, -0.1%, 2.3e-09
(25) CCCCCl
    ., ?, ., 1.0%, .
(26) C[C@@]12CC[C@H]3[C@@H](CC=C4C[C@H](OS(=O)(=O)O)CC[C@]43C)[C@H]1CCC2=O
    i, ?, i, -1.0%, 4.3e-08
(27) Cn1c(O)c(C=NCCc2c[nH]c3ccccc23)c(=O)n(C)c1=O
    ., -3%, ., -0.4%, .
(28) CC(=Nc1ccc2c(c1)CCC2)c1c(O)n(C)c(=O)n(C)c1=O
    i, 21%, i, 1.6%, 1.5e-08
(29) CCOC(=O)c1ccccc1N
    ., 2%, ., 0.3%, .
(30) ClC1=C(Cl)C(Cl)(Cl)C(Cl)=C1Cl
    ., ?, ., 1.0%, .
(31) CC(=O)O[C@@H]1CN2CCC1CC2
    ., 13%, ., 0.0%, .
(32) CCCC(=O)c1c(O)[nH]c(=O)[nH]c1=O
    i, -7%, i, 3.5%, 5e-09
(33) Cc1ccc(Cn2nnnc2CN2CCC(n3nnc4cc(C)ccc43)CC2)cc1
    i, ?, i, 1.7%, 1e-09
(34) CCCN1CCC[C@H](c2cccc(O)c2)C1
    i, 7%&10%, i, 0.4%&-0.6%, 1e-09&1e-09
(35) C=CCO
    ., ?, ., 0.2%, .
(36) c1cc2c(c(NC3=NCCN3)c1)CCCC2
    i, 0%[11.4 µM], i, -0.7%[11.5 µM], 5.3e-08
(37) Cc1ccc(N)cc1N
    ., -11%, ., 18%, .
(38) CCCS(=O)(=O)N1CCC(C(=O)N2CCC3(CC2)OCCO3)CC1
    i, -1%, i, -1.5%, 1e-09
(39) O=C(O)c1nonc1-c1nonc1C(=O)O
    i, 6%, i, 0.6%, 2.4e-08
(40) CC#CP(=O)(OCC)C(O)(c1ccccc1)C(F)(F)F (centres undefined)
    i, 10%, i, 0.3%, 1e-09
(41) COc1ccc(C[C@H]2NC[C@H](O)[C@@H]2OC(C)=O)cc1
    ., -5%, ., -0.6%, .
(42) Oc1c(Cl)c(Cl)cc(Cl)c1Cl
    ., ?, ., 7.2%, .
(43) CCCCn1c(O)c(C(C)=Nc2cccc(C(=O)O)c2)c(=O)[nH]c1=O
    i, -3%, i, 0.5%, 1e-09
(44) CCCCCC[C@H]1C(=O)O[C@@H](C)[C@H](NC(=O)c2cccc(NC=O)c2O)C(=O)O[C@@H](C)[C@@H]1OC(=O)CC(C)C
    i, ?, i, ., 1.1e-08
(45) CCS(=O)(=O)Nc1cccc(C(=C2CCCCC2)c2cnc[nH]2)c1
    i, ., i, -2.6%, 4.4e-08
(46) N[C@@H]1C[C@H]1c1ccccc1
    i, -3%, i, -1.2%, 2.2e-09
(47) CCOC(=O)C1CN(C)CCC1=O (centres undefined)
    i, 2%[11.4 µM], i, 4.0%, 4.8e-09
(48) C=C(C)C#N
    ., -1%, ., 1.9%, .
(49) O=C1c2ccccc2C2(c3ccc(Cl)cc3)NCCN12 (centres undefined)
    i, 4%, i, -0.6%, 2.3e-09
(50) Cc1ccc2c(c1)C1CN(C)CCC1N2S(=O)(=O)c1ccccc1 (centres undefined)
    i, 7%, i, 0.9%, 3.1e-08
(51) c1ccc(-c2cc3c(nc2-c2ccccc2)CCNC3)cc1
    ., 6%[11.4 µM], ., -2.4%[11.5 µM], .
(52) ClCC(Cl)CCl
    ., 3%, ., -0.5%, .
(53) c1cnc(N2CC3(CCNCC3)C2)nc1
    i, 3%, i, 1.7%, 3.9e-09
(54) CC(=O)Oc1ccccc1C(=O)Nc1ncc([N+](=O)[O-])s1
    ., ?, ., -3.1%, .
(55) Cc1cc(OC(=O)CCNC(=O)OC(C)(C)C)c2c3c(c(=O)oc2c1)CCC3
    i, ?, i, 0.7%, 1.9e-09
(56) O=C1/C(=C\c2ccccc2)C[C@@]2(O)[C@H]3Cc4ccc(O)c5c4[C@@]2(CCN3CC2CC2)[C@@H]1O5
    ., ?, ., 1.4%, .
(57) COc1ccc(-c2cc(C(F)(F)F)n3nc(C(=O)N4CCC5(CC4)OCCO5)cc3n2)cc1OC
    i, 12%, i, 0.4%, 4.3e-08
(58) c1cncc(CNC2=NCCCCC2)c1
    i, -1%, i, 1.3%, 1.3e-08
(59) O=C(CCCN1CCC(n2c(=O)[nH]c3ccccc32)CC1)c1ccc(F)cc1
    i, -1%[25.6 µM], i, 5.2%[25.7 µM], 6.8e-09
(60) CC(=NCc1ccc2c(c1)OCO2)c1c(O)[nH]c(=O)[nH]c1=O
    i, 2%, i, -1.5%, 2.5e-08
(61) CN1C(=O)C(Cc2ccsc2)C(=O)N(C)C1=O
    i, 0%, i, 2.4%, 1.8e-09
(62) NCCc1ccc(O)cc1
    i, 0%&-3%&1%, i, -1.6%&-1.0%&-1.2%, 3.9e-09&3.1e-09
(63) Cn1c(C(=O)N2CCC(C(=O)N3CCC4(CC3)OCCO4)CC2)cc2sccc21
    i, -4%, i, 0.7%, 1e-08
(64) c1ccc2c(c1)OCC(C1=NCCN1)O2 (centres undefined)
    i, ., i, ., 1e-09
(65) O=C(Oc1ccccc1)N1CCC2(CCCN(Cc3ccccc3)C2)CC1
    i, ?, i, 2.2%, 1.1e-09
(66) O=c1c2ccccc2nc(-c2cccs2)n1-c1cnccn1
    ., 23%, ., -0.1%, .
(67) Clc1cnc(Oc2ccc(Oc3ncc(Cl)cc3Cl)cc2)c(Cl)c1
    i, ., i, -1.0%, 1e-09
(68) O=C(COc1ccc2ccccc2c1)N1CCN(C2CCN(Cc3ccccc3)CC2)CC1
    i, ., i, ., 2.6e-09
(69) N[C@@H]1CCc2cc(O)c(O)cc2C1
    i, 1%, i, 0.3%, 1e-08
(70) Cc1ccc(CN2CC3CC(C2)c2cccc(=O)n2C3)cc1 (centres undefined)
    ., 19%, ., 1.5%, .
(71) CCCCOC(=O)c1ccccc1C(=O)OCCCC
    ., ?, ., 2.7%, .
(72) CCCCc1ccc(C(=O)O)nc1
    i, ?, i, -1.9%, 2.4e-09&1.3e-09&5.1e-09
(73) Cc1sc2ccccc2c1CC1=NCCN1
    i, ?, i, 0.1%, 1.5e-09
(74) CCOP(=S)(OCC)Oc1ccc([N+](=O)[O-])cc1
    ., ?, ., -1.2%&1.8%, .
(75) COc1cc2c(cc1O)[C@H]1Cc3ccc(OC)c(O)c3CN1CC2
    i, 1%[25.6 µM], i, 0.1%[25.7 µM], 1.5e-09
(76) CC[N+](=O)[O-]
    ., ?, ., 1.3%, .
(77) C=CC(=O)OCC(C)C
    ., ?, ., -1.2%, .
